Source: PubChem
Tgondii IFNg = T. gondii growth inhibition with IFN-gamma, primary screen, cell-based; Toxoplasma gondii growth in IFN-gamma-treated host cells; active compounds read low; reference of the scale not given here; activity change, negative = inhibition, %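 (about 20 µM by stock and volumes)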; actives 3.8% (n = 69,000); AID 1259416, 2018;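 active means below -70%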;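 further: host cells are HeLa cells infected with Toxoplasma gondii; parasite growth read as luciferase light; one replicate is shown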
Starred values were filed as active, the others as inactive; & = joins results of further samples. Not all compounds are listed; count on the stated rates, not on these rows.

Results for O=C(CN1CCc2[nH]nc(-c3ccccc3F)c2C1)N1CCCC(c2csnn2)C1 (stereo unspecified) ?
Tgondii IFNg: 16

How did CCCS(=O)(=O)N1C[C@H](OCc2cccnc2)[C@@H]2COC[C@@H]21 do in these assays?
Tgondii IFNg: -8

Results for CCOc1ccc(S(=O)(=O)NCCc2csc(-c3ccc(F)cc3)n2)cc1 ?
Tgondii IFNg: -42

How did Cc1ccc(CNc2cccc(C(=O)N3CCC(C(O)c4nccn4C)CC3)c2)cc1 (stereo unspecified) do in these assays?
Tgondii IFNg: 1

How did COc1cc(C)ccc1S(=O)(=O)N1C[C@@H]2COC[C@@]2(CN(C)C)C1 do in these assays?
Tgondii IFNg: -11

How did O=C(Cn1c(=O)cc(C(=O)N2CCOCC2)c2ccccc21)Nc1ccccc1C(F)(F)F do in these assays?
Tgondii IFNg: 4

What do the screens show for `Cn1nccc1C(=O)N1CCC2(CC1)Nc1ccc(Cl)cc1-n1cccc12`?
Tgondii IFNg: -20

What do the screens show for `C[C@@H]1CN([C@H](C)CO)C(=O)c2ccccc2-c2ccccc2CO[C@@H]1CN(C)Cc1cccc2c1OCCCO2`?
Tgondii IFNg: -47

Results for CC(=O)NCC(=O)N1Cc2cc(C#N)ccc2C1c1cnco1 (stereo unspecified) ?
Tgondii IFNg: 4

What do the screens show for `CN(C(=O)COCC1CCCCO1)C1Cc2ccccc2C1` (stereo unspecified)?
Tgondii IFNg: 229

Results for Cc1cc(C)n(CCC(=O)N2CCC3(CCN(C)CC3)C2)c(=O)n1 ?
Tgondii IFNg: -3

How did CS(=O)(=O)N1CCCN(C(=O)c2ccccc2C2CCNC2)CC1 (stereo unspecified) do in these assays?
Tgondii IFNg: 16

How did CC(=O)N1CCc2cc(NC(=O)Cn3nc(C)nc3C)ccc21 do in these assays?
Tgondii IFNg: 9

How did O=C(O)c1cc(=O)cc(C(F)(F)F)o1 do in these assays?
Tgondii IFNg: 54

Results for CCn1c(=O)c(-c2nc(-c3ccc(F)cc3)no2)c(O)c2ccccc21 ?
Tgondii IFNg: 3

What do the screens show for `C=CCN1CCN(C)C(=O)C12CCN(c1cnccn1)C2` (stereo unspecified)?
Tgondii IFNg: -1

What do the screens show for `O=C1CN(S(=O)(=O)c2cccc(F)c2)C[C@H]2[C@H](c3ccc(C4=CCCC4)cc3)[C@@H](CO)N12`?
Tgondii IFNg: -1

Results for COc1ccc(OC)c(NC(=O)c2c(O)c3cccnc3n(-c3ccc(F)cc3)c2=O)c1 ?
Tgondii IFNg: 113

What do the screens show for `O=C(NCc1ccco1)c1c(O)c2cccnc2n(-c2ccc(F)cc2)c1=O`?
Tgondii IFNg: -79*

Results for COCCN1CC(C(=O)N2CC(n3nc(C)cc3C)C2)CC1=O (stereo unspecified) ?
Tgondii IFNg: 3

What do the screens show for `N#C[C@@H]1[C@@H](c2ccccc2C2=CCCC2)[C@H](CO)N1C(=O)Cc1ccncc1`?
Tgondii IFNg: -49

How did Cn1c(CSCC(=O)Nc2ccccc2)nnc1SCC(=O)c1ccc(F)c(F)c1 do in these assays?
Tgondii IFNg: 3

What do the screens show for `CC(=O)N1CCO[C@H]2CCN(C(=O)c3cn(C)cn3)C[C@H]21`?
Tgondii IFNg: -46

Results for O=C(COC(=O)c1cc(S(=O)(=O)N2CCCCCC2)cs1)c1ccccc1 ?
Tgondii IFNg: 30

How did CN(Cc1cc2n(n1)CCNC2)Cc1nc(-c2ccccc2)cs1 do in these assays?
Tgondii IFNg: 1

What do the screens show for `Fc1cnc(NC2COC3(CCCN(CC4CCOCC4)C3)C2)nc1` (stereo unspecified)?
Tgondii IFNg: -2

Results for Cc1cc(N)n(-c2ccc(C(=O)O)cc2)n1 ?
Tgondii IFNg: 7

What do the screens show for `Cc1nonc1CN(C)Cc1cnn(-c2ccc(F)cc2)c1`?
Tgondii IFNg: 16

Results for Cc1nc(NC(C)C)nc2c1CN(Cc1cccc(C#N)c1)CC2 ?
Tgondii IFNg: -3

How did O=C(CN1C(=O)CCc2cc(Br)ccc21)N1CCN(c2ncccn2)CC1 do in these assays?
Tgondii IFNg: 17

Results for C/C=C/c1ccc([C@H]2[C@@H](CO)N3CCCCN(C(=O)c4ccc(F)cc4)C[C@@H]23)cc1 ?
Tgondii IFNg: 2

What do the screens show for `CN(C)CC(=O)N1[C@H](CO)[C@H](c2ccccc2-c2ccccc2F)[C@@H]1C#N`?
Tgondii IFNg: -20

Results for O=C(Nc1ccccc1Cl)N1C[C@H]2[C@@H](c3ccccc31)[C@@H](CO)N2C(=O)c1cccnc1 ?
Tgondii IFNg: -13

Results for Cn1cc(C[C@H]2[C@H](O)CCN2C(=O)NCc2cccc(F)c2)cn1 ?
Tgondii IFNg: 7

How did COc1cc(C)c(/C=C/C(C)=C/C=C/C(C)=C/C(=O)O)c(C)c1C do in these assays?
Tgondii IFNg: -18

What do the screens show for `C=CCN1C(=O)CCC12CCC(NCc1cnn(C)c1)CC2` (stereo unspecified)?
Tgondii IFNg: 2

Results for Cc1ccc(N(C(=O)c2cnccn2)C(C(=O)NC2CCCCC2)c2sccc2C)cc1 (stereo unspecified) ?
Tgondii IFNg: -8

Results for O=c1[nH]c2ccccc2c(O)c1-c1nc(-c2cccc(Br)c2)no1 ?
Tgondii IFNg: 11

Results for CCOC(=O)C1(NC(=O)c2cnc(CC)nc2)CCC1 ?
Tgondii IFNg: 5

How did C[C@@H]1CN([C@H](C)CO)S(=O)(=O)c2ccc(-c3cccc(C#N)c3)cc2O[C@@H]1CN(C)C(=O)c1ccccc1 do in these assays?
Tgondii IFNg: -51

Brought forward from above: five entries, followed by the next part.
What do the screens show for `C=CCN1C(=O)CCC12CCC(NCc1cnn(C)c1)CC2` (stereo unspecified)?
Tgondii IFNg: 2

Results for Cc1ccc(N(C(=O)c2cnccn2)C(C(=O)NC2CCCCC2)c2sccc2C)cc1 (stereo unspecified) ?
Tgondii IFNg: -8

Results for O=c1[nH]c2ccccc2c(O)c1-c1nc(-c2cccc(Br)c2)no1 ?
Tgondii IFNg: 11

Results for CCOC(=O)C1(NC(=O)c2cnc(CC)nc2)CCC1 ?
Tgondii IFNg: 5

How did C[C@@H]1CN([C@H](C)CO)S(=O)(=O)c2ccc(-c3cccc(C#N)c3)cc2O[C@@H]1CN(C)C(=O)c1ccccc1 do in these assays?
Tgondii IFNg: -51

How did Cc1cc(N)n(-c2ccc(C(=O)N(Cc3ccccn3)CC3CCCO3)cc2)n1 (stereo unspecified) do in these assays?
Tgondii IFNg: -7

How did CCOc1ccc(-c2nc(CN(C)S(=O)(=O)c3ccc(C)c(C)c3)c(C)o2)cc1 do in these assays?
Tgondii IFNg: -102*

Results for C[C@@H]1CN([C@H](C)CO)C(=O)c2cc(NC(=O)NC3CCCCC3)ccc2O[C@@H](C)CCCCO[C@H]1CN(C)S(C)(=O)=O ?
Tgondii IFNg: -36

How did CC(=O)Nc1cc(C(=O)c2cccs2)nn(-c2ccc(Cl)cc2)c1=O do in these assays?
Tgondii IFNg: 0

Results for Cc1ccc(-c2cc(O)c3c(c2)CN(C(=O)CCN2CCCO2)CCO3)s1 ?
Tgondii IFNg: -75*

What do the screens show for `CO[C@@H]1CN(C)C(=O)c2cc(NS(=O)(=O)c3cccc(Cl)c3)ccc2OC[C@@H](C)NC[C@H]1C`?
Tgondii IFNg: -21

What do the screens show for `CCO[C@H]1CN(C(=O)c2ccc3c(c2)OCO3)[C@H]2COC[C@@H]12`?
Tgondii IFNg: -24

What do the screens show for `CN(C)CC1(O)CCN(C(=O)CCOc2ccccc2)C1` (stereo unspecified)?
Tgondii IFNg: 3

Results for CCOC(=O)CSC1=Nc2ccccc2C2=NC(CCC(=O)NCc3cccs3)C(=O)N12 (stereo unspecified) ?
Tgondii IFNg: 17

How did CCCN1CCC(c2cc3c(ncn3C)c(-c3ccc(OC)cc3)n2)CC1 do in these assays?
Tgondii IFNg: 6

Molecules listed so far that have bromine (2):
How did O=C(CN1C(=O)CCc2cc(Br)ccc21)N1CCN(c2ncccn2)CC1 do in these assays?
Tgondii IFNg: 17

Results for O=c1[nH]c2ccccc2c(O)c1-c1nc(-c2cccc(Br)c2)no1 ?
Tgondii IFNg: 11

The listing picks up; the 3 compounds before the break are reprinted first.
What do the screens show for `CN(C)CC1(O)CCN(C(=O)CCOc2ccccc2)C1` (stereo unspecified)?
Tgondii IFNg: 3

Results for CCOC(=O)CSC1=Nc2ccccc2C2=NC(CCC(=O)NCc3cccs3)C(=O)N12 (stereo unspecified) ?
Tgondii IFNg: 17

How did CCCN1CCC(c2cc3c(ncn3C)c(-c3ccc(OC)cc3)n2)CC1 do in these assays?
Tgondii IFNg: 6

How did C[C@@H]1CN([C@H](C)CO)C(=O)c2cc(NC(=O)Nc3ccc(C(F)(F)F)cc3)ccc2O[C@@H](C)CCCCO[C@@H]1CN(C)CC1CCCCC1 do in these assays?
Tgondii IFNg: 203

How did Cc1nc(C(C)NC(=O)COc2ccc(F)cc2)n[nH]1 (stereo unspecified) do in these assays?
Tgondii IFNg: 8

How did CCOc1cc(-c2ccccc2)nc(N)n1 do in these assays?
Tgondii IFNg: 228

How did Cc1nc(N(C)C(=O)Cc2ccc(-c3ccccn3)cc2)sc1S(N)(=O)=O do in these assays?
Tgondii IFNg: 20

Results for N#C[C@H]1[C@@H](c2ccccc2C2=CCCCC2)[C@H](CO)N1S(=O)(=O)c1ccccc1 ?
Tgondii IFNg: -52

Results for O=C(NC1CCCN(c2ncccn2)C1)c1cccc2ccnn12 (stereo unspecified) ?
Tgondii IFNg: -42

How did Cc1cccc(CC(=O)N2CCC(c3ncc4c(n3)CCN(C)C4)C2)c1 (stereo unspecified) do in these assays?
Tgondii IFNg: -12

How did COc1cc(N2CCC(c3cc(-c4ccco4)n[nH]3)CC2)ncn1 do in these assays?
Tgondii IFNg: 6

Results for COc1ccccc1C1CCCN1CC(=O)Nc1ccnn1C1CCCC1 (stereo unspecified) ?
Tgondii IFNg: -15

What do the screens show for `Cc1ncsc1C(=O)N1CCC2(CCC(CC(=O)O)CC2)CC1`?
Tgondii IFNg: -9

How did CC(C)(C)NCC(O)CSc1nc(-c2ccc(C(N)=O)s2)cs1 (stereo unspecified) do in these assays?
Tgondii IFNg: 7

How did O=C(Cn1c(=O)ccc2cc(S(=O)(=O)N3CCCC3)ccc21)N1CCc2ccccc21 do in these assays?
Tgondii IFNg: 24

Results for O=C1OC(OC(=O)c2cccnc2Nc2cccc(C(F)(F)F)c2)c2ccccc21 (stereo unspecified) ?
Tgondii IFNg: 21&16

Results for c1ccc(COc2ccc(-n3cnnc3)cc2)nc1 ?
Tgondii IFNg: -20

Results for COCC1CN(Cc2ccc3c(c2)OCO3)Cc2cncn2C1 (stereo unspecified) ?
Tgondii IFNg: 3

What do the screens show for `O=C(C1Cc2ccccc2C1)N(CCCn1ccnc1)Cc1ccncc1`?
Tgondii IFNg: -9

What do the screens show for `C=CCN1CCO[C@H]2CN(C(=O)c3cc(C)oc3C)CC[C@@H]2C1`?
Tgondii IFNg: -10

How did CC(C)C(=O)Nc1ccc2c(c1)C(=O)N(C)[C@H]1CC[C@@H](CC(=O)NCCc3ccccc3)O[C@@H]1CO2 do in these assays?
Tgondii IFNg: 2

Results for COc1ccc(-c2nc(Nc3cccc(C(F)(F)F)c3)c3ccccc3n2)cc1 ?
Tgondii IFNg: 23

How did CCN1CCCC(C)(C(=O)NCc2ccc(-c3noc(C)n3)cc2)C1 (stereo unspecified) do in these assays?
Tgondii IFNg: -1

What do the screens show for `Cc1c(C(=O)N2CCN(C3CCCCC3)CC2)cnn1-c1nccc(-c2ccccc2F)n1`?
Tgondii IFNg: -25

Results for CCc1ccc(CN2CCC(CNC(=O)Nc3ccccc3)C2)nc1 (stereo unspecified) ?
Tgondii IFNg: -55

How did COCCNC(=O)c1c[nH]c2cc3c(cc2c1=O)OCCO3 do in these assays?
Tgondii IFNg: 26

Results for Cc1ccc(C2(O)CCN(C(=O)c3ccc(CC4CCCNC4)cc3)CC2)nc1 (stereo unspecified) ?
Tgondii IFNg: 1

What do the screens show for `CCc1ccccc1CN1CCN(c2ccc(C(=O)N3CCCC3)cn2)CC1`?
Tgondii IFNg: -41

Results for c1ccc(C2CC3CCCCC3CO2)cc1 (stereo unspecified) ?
Tgondii IFNg: 5

What do the screens show for `Cc1ccccc1CC(=O)N1CCCC1c1nc(-c2cccnc2)cc(=O)[nH]1` (stereo unspecified)?
Tgondii IFNg: 46

Results for CCCNC(=O)Nc1ccc2c(c1)OC[C@@H](C)N(C(=O)C1CCOCC1)C[C@@H](C)[C@@H](OC)CN(C)C2=O ?
Tgondii IFNg: 97

What do the screens show for `O=C(c1cc2cccnc2n(Cc2ccc(F)cc2)c1=O)N1CCN(c2ccccc2Cl)CC1`?
Tgondii IFNg: -84*

What do the screens show for `COc1ccccc1N1CCN(CCCCNS(=O)(=O)c2ccc(C)cc2)CC1`?
Tgondii IFNg: 24

What do the screens show for `OC[C@H]1[C@@H](c2ccccc2)C2(CN(Cc3ccccc3F)C2)N1Cc1ccccc1F`?
Tgondii IFNg: -45

Results for COc1ccc(-c2nc(CN3C(=O)C(O)(c4cccc(C)c4)c4ccccc43)c(C)o2)cc1 (stereo unspecified) ?
Tgondii IFNg: -37

What do the screens show for `CC(=O)N1CCOCC2(CCN(C(=O)C3CCCO3)CC2)C1` (stereo unspecified)?
Tgondii IFNg: 0

Results for CCCc1ccc(OCC(=O)Nc2sc(C)c(C)c2C(=O)OC(C)C)cc1 ?
Tgondii IFNg: -24

What do the screens show for `Cc1ccc(-c2coc(-c3ccc(NC(=O)c4sccc4C)cc3)n2)c(C)c1`?
Tgondii IFNg: 34
